Ecoli rRNA inh = inhibitors of bacterial rRNA selective over humanized ribosomes. E. coli WT GFP vs humanized-ribosome RFP mutants, fluorescence, 24 h; hits give low values; DMSO median 0, no signal -100. AID 720706. GFP signal change (wild-type ribosome), % (test concentration not listed). 350,000 compounds, 1.6% hits;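 active = significant combined selectivity score with lowered wild-type GFP, culture density cut under 30%, mutant RFP and density less affected; inactive = any of these conditions unmet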; also: one replicate is shown; some compounds called inactive have numbers as strong as hits
MLL AF4-AF9 inh = MLL-AF4/AF9 protein interaction inhibition; AlphaScreen, biotin-AF4 peptide binding to FLAG-AF9; inhibition, % at 10 µM; 350,000 compounds, 0.47% hits; AID 651704;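 active = every replicate reaching a set inhibition limit, whatever the replicate mean, cut at about 25% in these data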;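 also: 0% = plate neutral control median and 100% = total signal loss; the record names both 10 and 1 µM as test concentration; the first replicate is given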
Target sequence (P42568 whole entry, looked up): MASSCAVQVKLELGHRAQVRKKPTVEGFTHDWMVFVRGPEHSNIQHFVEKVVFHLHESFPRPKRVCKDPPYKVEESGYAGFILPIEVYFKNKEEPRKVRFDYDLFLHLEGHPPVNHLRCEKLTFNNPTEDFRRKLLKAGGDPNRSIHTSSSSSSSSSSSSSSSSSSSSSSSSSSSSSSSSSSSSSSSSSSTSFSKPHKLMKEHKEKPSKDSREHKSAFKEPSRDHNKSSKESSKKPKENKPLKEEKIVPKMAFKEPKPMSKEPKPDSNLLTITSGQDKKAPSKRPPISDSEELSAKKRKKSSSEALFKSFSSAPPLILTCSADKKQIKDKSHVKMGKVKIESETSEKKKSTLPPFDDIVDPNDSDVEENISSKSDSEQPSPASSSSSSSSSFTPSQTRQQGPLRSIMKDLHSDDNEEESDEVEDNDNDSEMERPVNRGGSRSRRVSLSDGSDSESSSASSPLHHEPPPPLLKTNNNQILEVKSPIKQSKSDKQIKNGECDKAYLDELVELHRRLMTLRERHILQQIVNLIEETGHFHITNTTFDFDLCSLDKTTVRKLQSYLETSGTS
FGF22 binding = binders of recombinant human FGF22 by thermal shift; SYPRO orange fluorescence; percent of sucrose octasulfate shift, DMSO zero; calls only at 9.99 µM; Q9HCT0; 340,000 compounds, 1.5% hits;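 active = melting point raised past a set limit in the mean and every replicate; three in four hits are not shown here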
Target sequence (Q9HCT0 whole entry, looked up): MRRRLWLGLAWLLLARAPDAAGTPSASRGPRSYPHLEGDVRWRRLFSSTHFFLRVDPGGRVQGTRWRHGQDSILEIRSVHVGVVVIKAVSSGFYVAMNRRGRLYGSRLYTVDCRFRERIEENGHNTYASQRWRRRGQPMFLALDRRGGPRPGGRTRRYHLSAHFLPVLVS
Ecoli rRNA inh OD600 = further read-out of Ecoli rRNA inh, marked with its call; OD600 change, %; measured here: OD600 growth;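 optical density of the mix in the first replicate; 0 = DMSO median and -100 = no signal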
Ecoli rRNA inh RFP = second read-out of Ecoli rRNA inh, no call of its own (marks repeat the call); RFP signal change, %; measured here: RFP humanized mutant strains;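 first replicate; 0 = DMSO median and -100 = no signal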
* marks the source's active call; other numbers are inactive results; i = inactive. An excerpt. The share of hits here may be higher or lower than overall.

SMILES | Ecoli rRNA inh | Ecoli rRNA inh OD600 | Ecoli rRNA inh RFP | MLL AF4-AF9 inh | FGF22 binding
O=C(C[C@@H]1CC[C@@H]2[C@H](COC[C@H](O)CN2S(=O)(=O)c2cccc(Cl)c2)O1)NCc1ccncn1 | -4 | 1 | -3.0 | -1.7 | i
COc1ccc(NC(=O)N(C)C[C@@H]2OCCCC[C@@H](C)Oc3ccc(NC(=O)CCCN(C)C)cc3C(=O)N([C@H](C)CO)C[C@H]2C)cc1 | -2 | 1 | -0.9 | 2.7 | i
COC(=O)C[C@H]1CC[C@H]2[C@@H](COc3ccc(NC(=O)Nc4cccc(F)c4)cc3C(=O)N2C)O1 | -3 | -4 | -0.4 | -0.1 | i
CCCNC(=O)N(C)C[C@@H]1Oc2cc(-c3ccccc3)ccc2S(=O)(=O)N([C@H](C)CO)C[C@@H]1C | -8 | -3 | 0.2 | 0.5 | i
C[C@H]1CN([C@@H](C)CO)C(=O)Cc2cc(NC(=O)NC3CCCCC3)ccc2O[C@@H]1CN(C)S(=O)(=O)c1cn(C)cn1 | 1 | -2 | 0.5 | -9.7 | i
COc1ccc2c3c([nH]c2c1)[C@H](CO)N(C(=O)CN(C)C)CC31CCN(CC2CCOCC2)CC1 | 7 | -4 | -4.8 | 0.3 | i
CN(C[C@H]1N[C@@H](CO)[C@@H]1c1ccc(C2=CCCC2)cc1)C(=O)c1cccc(F)c1 | -7 | -26 | 0.3 | 2.5 | i
CO[C@@H]1CN(C)C(=O)c2cc(NS(C)(=O)=O)ccc2OC[C@H](C)N(C(=O)c2ccc3c(c2)OCO3)C[C@@H]1C | 4 | 5 | -3.0 | -0.9 | i
O=c1c2c3c(sc2n(CCN2CCOCC2)c(=O)n1C1CCCCC1)CCCCC3 | 0 | -12 | -3.1 | 3.2 | i
C[C@@H]1CN([C@H](C)CO)S(=O)(=O)c2ccc(C#CC3CCCCC3)cc2O[C@H]1CN(C)C | -1 | -25 | 18 | 11 | i
CCCNC(=O)[C@H]1[C@H](CO)[C@H]2Cn3c(cccc3=O)[C@@H]1N2S(=O)(=O)c1ccccc1F | 3 | 4 | 2.1 | -20 | i
Cc1ccc(-c2ccc3c(c2)O[C@@H](CN(C)C(=O)Nc2ccc(C(F)(F)F)cc2)[C@@H](C)CN([C@H](C)CO)S3(=O)=O)cc1 | 0 | 6 | -0.2 | -1.6 | i
Cc1cn([C@H]2C[C@H](O)[C@@H](CNCc3ccc(C#CCCO)cc3)O2)c(=O)[nH]c1=O | 14 | 10 | 0.8 | -1.8 | i
CN(C)c1ccc2c(c1[N+](=O)[O-])Cc1ccccc1-2 | 1 | 2 | -0.7 | 17 | i
O=C(c1ccc2ncsc2c1)N1CCN(c2cccc(C(F)(F)F)c2)CC1 | -17 | -37 | -6.5 | -12 | i

Fetched one by one from the list above (2):
SMILES | Ecoli rRNA inh | Ecoli rRNA inh OD600 | Ecoli rRNA inh RFP | MLL AF4-AF9 inh | FGF22 binding
COC(=O)C[C@H]1CC[C@H]2[C@@H](COc3ccc(NC(=O)Nc4cccc(F)c4)cc3C(=O)N2C)O1 | -3 | -4 | -0.4 | -0.1 | i
Cc1ccc(-c2ccc3c(c2)O[C@@H](CN(C)C(=O)Nc2ccc(C(F)(F)F)cc2)[C@@H](C)CN([C@H](C)CO)S3(=O)=O)cc1 | 0 | 6 | -0.2 | -1.6 | i

(further entries)
SMILES | Ecoli rRNA inh | Ecoli rRNA inh OD600 | Ecoli rRNA inh RFP | MLL AF4-AF9 inh | FGF22 binding
O=C([C@H]1[C@H](CO)[C@H]2Cn3c(ccc(-c4ccccc4)c3=O)[C@@H]1N2CCC(F)(F)F)N1CCCCC1 | -1 | 2 | -0.8 | 1.0 | i
CCC(=O)N1CC2(CN(C(=O)CN3CCOCC3)C2)c2c([nH]c3cc(OC)ccc23)[C@H]1CO | 0 | 15 | -3.4 | 0.8 | i
C[C@H]1CCCCO[C@@H](CN(C)C(=O)NC2CCCCC2)[C@@H](C)CN([C@@H](C)CO)C(=O)c2cc(NC(=O)NC3CCCCC3)ccc2O1 | 4 | 1 | 0.7 | -0.6 | i
C[C@@H]1CCCCO[C@@H](CN(C)Cc2ccc(Cl)c(Cl)c2)[C@@H](C)CN([C@@H](C)CO)C(=O)c2cc(NS(=O)(=O)c3cn(C)cn3)ccc2O1 | -2 | -2 | 1.6 | 4.7 | i
C[C@@H](NC(=O)C[C@@H]1CC[C@@H](NC(=O)c2cccnc2)[C@@H](CO)O1)c1ccccc1 | 3 | 2 | 0.0 | -2.5 | i
CCC(=O)N1C[C@@H](C)[C@@H](OC)CN(C)C(=O)c2ccc(NC(=O)c3ccccc3)cc2OC[C@@H]1C | -1 | -4 | -0.8 | -2.2 | i
O=[N+]([O-])c1ccc(NN=Cc2cccc3ccccc23)nc1 | -2 | 0 | 1.1 | 0.4 | i
C[C@@H]1CN([C@@H](C)CO)C(=O)Cc2cc(NS(=O)(=O)c3cn(C)cn3)ccc2O[C@H]1CN(C)C(=O)Nc1ccccc1 | 1 | 0 | -1.9 | -1.2 | i
C[C@H](CO)N1C[C@H](C)[C@H](CN(C)Cc2ccc(F)cc2)Oc2ncc(-c3cccc(C(F)(F)F)c3)cc2C1=O | -25 | -65 | 29 | 8.3 | i
COc1ccc(NC(=O)Nc2ccc3c(c2)C(=O)N([C@@H](C)CO)C[C@@H](C)[C@H](CN(C)Cc2ccc4c(c2)OCO4)OCCCC[C@H](C)O3)cc1 | 4 | -13 | 2.8 | 11 | i
C[C@@H]1CN([C@@H](C)CO)C(=O)Cc2cc(NC(=O)Nc3cccc4ccccc34)ccc2O[C@H]1CN(C)C(=O)Nc1ccc2c(c1)OCO2 | -3 | -8 | -1.9 | -0.3 | i
COC(=O)[C@]12CCCCC=C1N(Cc1ccccc1)C(=O)[C@H](CC(=O)NCCCN1CCCC1=O)C2 | 3 | 2 | -0.9 | -15 | i
C[C@H]1CCCCO[C@@H](CN(C)S(=O)(=O)c2ccccc2)[C@@H](C)CN([C@@H](C)CO)C(=O)c2cc(NC(=O)c3ccccc3)ccc2O1 | -4 | 0 | 3.8 | -1.3 | i
Cc1ccccc1NC(=O)COC(=O)COc1ccc2c(c1)CCC2 | 8 | 8 | -1.3 | 3.7 | i
Cc1noc(C)c1S(=O)(=O)N(C)C[C@H]1OCc2ccccc2-c2c(n(C)c3ccccc23)C(=O)N([C@H](C)CO)C[C@H]1C | 1 | 0 | 2.4 | 4.4 | i
COc1ccc(S(=O)(=O)N(C)C[C@H]2OCCCC[C@@H](C)Oc3ccc(NC(=O)Nc4ccc(C(F)(F)F)cc4)cc3C(=O)N([C@H](C)CO)C[C@H]2C)cc1 | 4 | 6 | 0.1 | -9.0 | i
O=C(NC1CCN(Cc2ccccc2)CC1)c1ccccc1NS(=O)(=O)c1ccc(F)c(F)c1 | -12 | -15 | 1.3 | 0.4 | i
CC[C@]12c3[nH]c4ccc(Cl)cc4c3CCN1C(=O)[C@@H](CC(=O)NCc1cccc(C(F)(F)F)c1)C[C@@H]2C(=O)N1CCN(C(=O)c2ccco2)CC1 | 0 | 5 | -0.9 | 1.3 | i
C[C@H](CO)N1C[C@H](C)[C@H](CN(C)C(=O)Nc2ccc(F)cc2)Oc2c(NC(=O)c3ccncc3)cccc2C1=O | 0 | -3 | -1.7 | -11 | i
O=C(c1cccnc1)N1CC(=O)N2[C@@H](CO)[C@H](c3ccc(-c4ccccc4F)cc3)[C@@H]2C1 | 1 | 8 | -5.2 | -1.0 | i
CCCCNC(=O)C1(C)CCN1C(=O)c1cccnc1Oc1ccccc1 (configuration not stated) | 6 | 13 | 0.3 | -3.9 | i
CC1(C)CC(NC(=O)C2CCN(S(=O)(=O)c3ccc(Cl)c(C(F)(F)F)c3)CC2)CC(C)(C)N1 | -3 | -5 | -1.5 | -0.8 | i
C[C@@H]1CN([C@H](C)CO)C(=O)Cc2cc(NS(=O)(=O)c3cn(C)cn3)ccc2O[C@H]1CN(C)Cc1ccc(C(=O)O)cc1 | 0 | 9 | -0.9 | -4.5 | i
C[C@@H]1CN([C@@H](C)CO)C(=O)c2cc(NC(=O)Cc3ccccc3)ccc2O[C@H]1CN(C)Cc1ccc(C(=O)Nc2ccccc2N)cc1 | 0 | -2 | 0.5 | -2.7 | i
O=C(NCC1CCCO1)c1cccc(S(=O)(=O)Nc2ccccc2Cl)c1 (configuration not stated) | 7 | 5 | -2.5 | -1.4 | i
O=C(C[C@H]1CC[C@@H]2[C@H](COC[C@@H](O)CN2S(=O)(=O)c2ccccc2Cl)O1)NCc1ccccc1Cl | 1 | 0 | -0.1 | 0.3 | i
COc1cccc(C=NNC(=O)C(C)SC(C)C(=O)NN=Cc2cccc(OC)c2)c1 (configuration not stated) | 22 | 17 | 6.5 | -3.1 | i
COc1ccc(-c2cnc3c(c2)C(=O)N([C@@H](C)CO)C[C@H](C)[C@@H](CN(C)Cc2cccnc2)O3)cc1 | -2 | 11 | 2.0 | -5.4 | i
Cc1noc(C)c1NC(=O)Nc1ccc2c(c1)CC(=O)N([C@@H](C)CO)C[C@@H](C)[C@H](CN(C)Cc1ccccc1)O2 | 3 | 6 | -1.4 | 3.9 | i
CN(C)C(=O)c1cccc(-c2ccccc2[C@H]2[C@@H](CO)N(C(=O)C3CCCCC3)[C@H]2C#N)c1 | 1 | 2 | 1.1 | 1.3 | i
O=C(C[C@H]1C=C[C@H](NC(=O)Nc2cc(F)ccc2F)[C@@H](CO)O1)Nc1ccccc1 | -5 | -5 | -1.2 | 0.8 | i
CCC(=O)N[C@H]1C=C[C@H](CC(=O)OC)O[C@H]1CO | 1 | -1 | -0.4 | 0.6 | i
COc1cc2c(cc1CNC[C@H]1O[C@@H](n3ccc(N)nc3=O)[C@H](O)[C@@H]1O)OCO2 | 7 | 2 | 0.0 | -1.4 | i
CC=Cc1ccc2n(c1=O)C[C@@H]1[C@@H](CO)[C@H](C(=O)N3CCCCC3)N(Cc3ccccn3)[C@H]21 (mixture of isomers) | 6 | 10 | 1.5 | -1.9 | i
CC(C)C#Cc1ccc2c(c1)O[C@@H](CN(C)C(=O)c1cccnc1)[C@H](C)CN([C@H](C)CO)S2(=O)=O | 3 | 6 | -1.4 | 1.1 | i
N#C[C@@H]1[C@H](c2ccccc2-c2cccc(F)c2)[C@H](CO)N1C(=O)C1CCOCC1 | 0 | -4 | -1.7 | -3.3 | i
CC=Cc1ccc2n(c1=O)C[C@@H]1[C@@H](CO)[C@H](C(=O)Nc3ccc(-c4ccccc4)cc3)N(C(=O)CC)[C@H]21 (mixture of isomers) | -6 | -14 | 19 | 8.4 | i
C[C@@H]1CN([C@@H](C)CO)C(=O)Cc2cc(NC(=O)C3CCCCC3)ccc2O[C@@H]1CN(C)S(C)(=O)=O | 2 | 16 | -0.8 | -2.1 | i
CO[C@@H]1CN(C)C(=O)c2ccc(NC(=O)c3ccc(F)cc3)cc2OC[C@@H](C)N(C(=O)c2ccc(F)cc2)C[C@@H]1C | -5 | -8 | 6.3 | -2.2 | i
CCCNC(=O)N(C)C[C@H]1Oc2cc(C#Cc3cccc(F)c3)ccc2S(=O)(=O)N([C@@H](C)CO)C[C@H]1C | 2 | -12 | 2.8 | -3.3 | i
CCCC#Cc1ccc2c(c1)O[C@H](CN(C)C(=O)NC(C)C)[C@@H](C)CN([C@@H](C)CO)S2(=O)=O | -10 | -3 | 2.9 | -0.3 | i
C/C=C/c1cnc2c(c1)C(=O)N([C@@H](C)CO)C[C@@H](C)[C@@H](CN(C)C(=O)C1CCOCC1)O2 | 0 | 5 | -3.1 | -3.3 | i
C[C@@H]1CN([C@H](C)CO)C(=O)c2cc(/C=C/c3ccccc3)cnc2O[C@H]1CN(C)C(=O)Cc1ccccn1 | -1 | 2 | 0.7 | 3.7 | i
O=C1NC[C@H](CCCCN2CCN(CCC3CCCCC3)C(=O)C2=O)N(CC2CCCCC2)C1=O | -21 | -9 | 15 | -1.2 | i
C[C@@H]1CN([C@@H](C)CO)C(=O)c2cc(NS(=O)(=O)c3cn(C)cn3)ccc2O[C@H]1CN(C)C(=O)Nc1ccc(C(F)(F)F)cc1 | -2 | 0 | -2.5 | -1.6 | i
C[C@H]1CN([C@@H](C)CO)C(=O)c2cc(NC(=O)Nc3ccc(F)cc3)ccc2O[C@@H]1CN(C)Cc1ccccc1 | 5 | 2 | -1.7 | -9.0 | i

A different layout for some results above.
Ecoli rRNA inh,Ecoli rRNA inh OD600,Ecoli rRNA inh RFP,MLL AF4-AF9 inh,FGF22 binding,molecule
3,6,-1.4,1.1,i,CC(C)C#Cc1ccc2c(c1)O[C@@H](CN(C)C(=O)c1cccnc1)[C@H](C)CN([C@H](C)CO)S2(=O)=O
0,-4,-1.7,-3.3,i,N#C[C@@H]1[C@H](c2ccccc2-c2cccc(F)c2)[C@H](CO)N1C(=O)C1CCOCC1
-6,-14,19,8.4,i,CC=Cc1ccc2n(c1=O)C[C@@H]1[C@@H](CO)[C@H](C(=O)Nc3ccc(-c4ccccc4)cc3)N(C(=O)CC)[C@H]21 (mixture of isomers)
2,16,-0.8,-2.1,i,C[C@@H]1CN([C@@H](C)CO)C(=O)Cc2cc(NC(=O)C3CCCCC3)ccc2O[C@@H]1CN(C)S(C)(=O)=O
-5,-8,6.3,-2.2,i,CO[C@@H]1CN(C)C(=O)c2ccc(NC(=O)c3ccc(F)cc3)cc2OC[C@@H](C)N(C(=O)c2ccc(F)cc2)C[C@@H]1C

High-throughput results (PubChem)
